RE007 growth inh: less growth of the S. pombe RE007 Vpr strain; Potency, µM (titrated, usually from 92.2 µM), inactives show top-dose activity change, negative = less growth; S. pombe RE007 Vpr strain, BacTiter-Glo ATP luminescence, 24 h; control for the full effect not named in the record; AID 651644; 360,000 compounds, 0.21% hits; active = well fitted falling curve with a large enough effect; inconclusive = small, poorly fitted or top-dose-only effect; inactive = no such curve, though single readings can be large or run the other way;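 also: % is scaled to controls: 0 for no effect and ±100 for the full control effect; nearly all actives have a fitted effect of over 50% in size; the assay follows cell death caused by Vpr and the record does not say whether a fall means rescue or toxicity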
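Fission yeast strain RE007, carrying one chromosomally integrated HIV-1 vpr copy, was seeded at OD 0.01 in PMG+AL medium with 23 nL pinned compound. After 24 h at 30 °C and 99% humidity, viability was read by BacTiter-Glo luminescence.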
2A StopGo: lowers the luciferase signal of an FMDV 2A StopGo reporter. human cells with a luciferase reporter of 2A StopGo recoding; control for the full effect not named in the record. Potency, µM (highest dose often 57.9 µM), for the others: top-dose signal change, negative = less light. 410,000 compounds, 1.2% hits. AID 1159524; active = well fitted falling curve with a large enough effect; inconclusive = small, poorly fitted or top-dose-only effect; inactive = no such curve, though single readings can be large or run the other way; tested in HEK293T cells; also: % is scaled to controls: 0 for no effect and ±100 for the full control effect; nearly all actives have a fitted effect of over 45% in size; luciferase light after 4 h
NS1 inh: influenza NS1 inhibition; 270,000 compounds, 0.4% hits; S. cerevisiae slowed by influenza A NS1, growth recovery by OD600; Potency, µM (titrated, usually from 46.1 µM), without a hit: top-dose activity, positive = more growth; active means well fitted rising curve with a large enough effect; inconclusive means small, poorly fitted or top-dose-only effect; inactive means no such curve, though single readings can be large or run the other way; also: nearly all actives have a fitted effect of over 50% in size
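Recovery from NS1-induced slow growth read by OD600 in budding yeast switched to galactose assay medium (pH 6.0, -URA) at 1:100 dilution. Compound 23 nl per well; the matching strain lacking NS1 serves as control.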
LASV entry inh: blocks Lassa virus binding to or entry into cells. Lassa virus pseudotype entry inhibition, cell reporter; control for the full effect not named in the record. Potency, µM (top dose mostly 37.9 µM), for inactives: at the top dose activity change, negative = inhibition, usual class: inhibitors. 300,000 compounds, 1.2% hits; active means well fitted inhibition curve with a large enough effect; inconclusive means small, poorly fitted or top-dose-only effect, or effect the other way; inactive means flat fitted curve, though single readings scatter; tested in HEK293 cells; also: % is scaled to controls: 0 for no effect and ±100 for the full control effect; nearly all actives have a fitted effect of over 50% in size; luciferase read-out
Cruzain Triton: blocks cruzain activity in presence of Triton detergent; P25779; purified cruzain, Z-FR-AMC fluorescence, 0.01% Triton; Potency, µM, for inactives: max response, negative = inhibition, actives largely listed as inhibitors; 200,000 compounds, 0.43% hits; AID 1478;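 also: plate controls were neutral wells for no effect and buffer without enzyme for full effect; nearly all actives have a fitted effect of over 40% in size; top concentration of the series not given in the record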
Target sequence (P25779 123-467 limits assumed): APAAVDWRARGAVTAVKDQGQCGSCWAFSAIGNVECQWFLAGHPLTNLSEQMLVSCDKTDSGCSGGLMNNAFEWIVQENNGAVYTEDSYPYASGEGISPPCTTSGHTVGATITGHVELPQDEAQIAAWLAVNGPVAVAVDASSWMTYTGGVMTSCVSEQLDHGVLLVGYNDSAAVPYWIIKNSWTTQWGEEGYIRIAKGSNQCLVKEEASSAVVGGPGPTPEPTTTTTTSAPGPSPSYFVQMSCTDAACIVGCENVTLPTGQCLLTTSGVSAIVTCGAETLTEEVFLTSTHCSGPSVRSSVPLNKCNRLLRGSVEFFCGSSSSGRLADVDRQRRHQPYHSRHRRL
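Z-FR-AMC hydrolysis (2 uM substrate) by cruzain (1.5 nM) monitored kinetically at ex 360/em 450 nm after 15 min room-temperature compound exposure; 0.01% Triton X-100, pH 5.5, 5 mM DTT.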
Marburg entry inh: Marburg virus entry inhibition. Marburg virus pseudotyped entry inhibition, cell reporter; control for the full effect not named in the record; about a third of the inactives were read at about 46 µM. Potency, µM (titrated, usually from 37.8 µM), without a hit: top-dose activity change, negative = inhibition, usual class: inhibitors. 300,000 compounds, 1.8% hits. AID 540276; active = well fitted inhibition curve with a large enough effect; inconclusive = small, poorly fitted or top-dose-only effect, or effect the other way; inactive = flat fitted curve, though single readings scatter; tested in HEK293 cells; about a fifth of its hits are not listed in these tables; also: % is scaled to controls: 0 for no effect and ±100 for the full control effect; luciferase read-out
SARS PLpro yeast: blocks SARS-CoV papain-like protease in a yeast assay; S. cerevisiae expressing SARS-CoV PLpro, growth rescue; control for the full effect not named in the record; AID 485353; Potency, µM (titrated, usually from 32.9 µM), for the others: at the highest dose activity, positive = growth rescue; 330,000 compounds, 0.19% hits; active means well fitted rising curve with a large enough effect; inconclusive means small, poorly fitted or top-dose-only effect; inactive means no such curve, though single readings can be large or run the other way; also: 0% is about no effect; nearly all actives have a fitted effect of over 55% in size; growth read by luminescence after 48 h
Cruzain inh noDet: inhibitors of Trypanosoma cruzi cruzain without detergent; P25779; purified cruzain, Z-FR-AMC fluorescence, no detergent; Potency, µM, without a hit: max response, negative = inhibition, hits mostly inhibitors; 200,000 compounds, 2.3% hits;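 also: plate controls were enzyme without inhibitor for no effect and buffer without enzyme for full effect; nearly all actives have a fitted effect of over 40% in size; top concentration of the series not given in the record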
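Purified cruzain at 1.5 nM, pre-incubated 15 min with compound at room temperature in 100 mM sodium acetate pH 5.5, 5 mM DTT, 0.00005% Triton X-100. Reaction started with 2 uM Z-FR-AMC; AMC fluorescence increase over 60 s gives rate.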
An asterisk follows results filed as active; & = joins results of further samples; [ ] = another dose, or the depositor's remark. Unless noted, calls follow the shape of the dose curve; as a rule, active = well fitted curve in the direction sought with a large enough effect; inconclusive = small, poorly fitted or top-dose-only effect, or another doubt; inactive = no such curve, though single readings can be large; an effect the other way counts as inactive or inconclusive. Potency is read from the fitted curve at half-maximal effect. No enrichment for hits; about 4.6% have a hit in one of these screens.

What do the screens show for `COc1ccc(/C=C/C(=O)Nc2sc3c(c2C(N)=O)CCCC3)cc1`?
2A StopGo: 17%; LASV entry inh: 9%[46.1 µM]; Cruzain Triton: -1.1%; Cruzain inh noDet: 0%

What do the screens show for `CCCNC(=O)CCSc1nc(-c2ccc3c(c2)OCO3)cc(C(F)(F)F)n1`?
2A StopGo: -28%; LASV entry inh: -10%[46.1 µM]; Cruzain Triton: -1.2%; Marburg entry inh: -13%[46.1 µM]; Cruzain inh noDet: -3%

How did COc1ccc2[nH]cc(CCNC(=O)Nc3ccccc3C)c2c1 do in these assays?
RE007 growth inh: 1%; 2A StopGo: -6%&-5%; NS1 inh: inconclusive; LASV entry inh: 21%&1%[46.1 µM]; Cruzain Triton: -3.1%; Marburg entry inh: 0%&-4%[46.1 µM]; SARS PLpro yeast: 0%; Cruzain inh noDet: 8%

How did CCCn1c(SCCC(=O)O)nc2ccccc21 do in these assays?
RE007 growth inh: 1%; 2A StopGo: 6%; NS1 inh: 1%; LASV entry inh: 1%; Marburg entry inh: inconclusive; SARS PLpro yeast: 1%

Results for COc1cc(Cl)c(C)cc1NC(=O)CN(C)Cc1cccc(OC)c1OC ?
RE007 growth inh: 11%; 2A StopGo: 0%; NS1 inh: 2%; SARS PLpro yeast: -8%

Results for CCc1ccc(N(CC(=O)N2CCOCC2)S(C)(=O)=O)cc1 ?
RE007 growth inh: 1%; 2A StopGo: -7%; NS1 inh: 5%; LASV entry inh: -3%; Marburg entry inh: 19%; SARS PLpro yeast: -2%

Results for Cc1oc(-c2cccs2)nc1CS(=O)CC(=O)NCCCN1CC(C)CC(C)C1 (stereo not given) ?
RE007 growth inh: -8%; 2A StopGo: 0%; NS1 inh: 2%; Cruzain Triton: 2.7%; Marburg entry inh: -1%; SARS PLpro yeast: 10%; Cruzain inh noDet: -8%

How did COc1ccc(Br)cc1CNC(=O)c1ccc2nc(C(C)C)oc2c1 do in these assays?
2A StopGo: -3%; LASV entry inh: 10%[46.1 µM]; Cruzain Triton: -6.5%; Cruzain inh noDet: 4%

What do the screens show for `Nc1c(C(=O)NC2CCCC2)c2nc3ccccc3nc2n1CC1CCCO1` (stereo not given)?
RE007 growth inh: 78%; 2A StopGo: inconclusive; NS1 inh: -69%; LASV entry inh: -28%; Cruzain Triton: -13%; Marburg entry inh: inconclusive; SARS PLpro yeast: -35%; Cruzain inh noDet: inconclusive

What do the screens show for `CCOc1ccc(NS(=O)(=O)c2ccc(C(=O)N(C)CC(=O)Nc3ccc(C)cc3)cc2)cc1`?
RE007 growth inh: -15%; 2A StopGo: -11%; LASV entry inh: inconclusive; Marburg entry inh: inconclusive; SARS PLpro yeast: -3%

Results for CCOc1ccc(S(=O)(=O)N(C)c2ccc(OCC(=O)NCc3cccnc3)cc2)cc1 ?
RE007 growth inh: -17%; 2A StopGo: -8%; NS1 inh: -3%; LASV entry inh: -10%; Marburg entry inh: -12%[46.1 µM]; SARS PLpro yeast: 2%

What do the screens show for `CCOC(=O)c1c(C)n(CC)c2c1cc(O)c1ccccc12`?
RE007 growth inh: 10%; 2A StopGo: 5%; NS1 inh: 6%; LASV entry inh: 7%; Marburg entry inh: inconclusive; SARS PLpro yeast: 1%

What do the screens show for `CCCCN1C(=O)Nc2ccccc2S1(=O)=O`?
RE007 growth inh: 13%; 2A StopGo: 39%[activator]; NS1 inh: -8%; LASV entry inh: 2%; Cruzain Triton: -3.1%; Marburg entry inh: 9%; SARS PLpro yeast: 13%; Cruzain inh noDet: -10%

What do the screens show for `O=C(CCc1cn(Cc2ccc(F)cc2)c2ccccc12)N1CCOCC1`?
RE007 growth inh: -2%; 2A StopGo: -22%; NS1 inh: -9%; SARS PLpro yeast: 0%

Results for O=[N+]([O-])c1ccc(O)c(C=Nc2cccc3ccccc23)c1 ?
RE007 growth inh: -22%; 2A StopGo: -3%; NS1 inh: -92%; LASV entry inh: 5%[46.1 µM]; Marburg entry inh: -8%[46.1 µM]; SARS PLpro yeast: -14%

Results for COc1cccc(CN(C)C(=O)c2cc(COc3c(F)cccc3F)on2)c1 ?
RE007 growth inh: -1%; 2A StopGo: 14%; NS1 inh: -2%; LASV entry inh: 16%[46.1 µM]; Marburg entry inh: 22%[46.1 µM]; SARS PLpro yeast: -1%

Results for COc1cc(NC(=O)CN2C(=O)CN(C)C2=O)c(C)cc1[N+](=O)[O-] ?
RE007 growth inh: 14%; 2A StopGo: 3%; NS1 inh: -5%; LASV entry inh: inconclusive; Marburg entry inh: inconclusive; SARS PLpro yeast: 0%

How did Cn1c(=O)c2cc(S(=O)(=O)NC(Cc3ccccc3)C(=O)Nc3ccc(F)cc3)ccc2n(C)c1=O (stereo not given) do in these assays?
2A StopGo: -13%; LASV entry inh: -4%[46.1 µM]; Cruzain Triton: -2.6%; Marburg entry inh: 3%[46.1 µM]; Cruzain inh noDet: -18%

What do the screens show for `Cn1c(=O)c2c(nc(NCCc3ccccc3)n2Cc2ccccc2Br)n(C)c1=O`?
2A StopGo: 8%; LASV entry inh: -17%[46.1 µM]; Cruzain Triton: -1.7%; Marburg entry inh: 4%[46.1 µM]; Cruzain inh noDet: -1%

What do the screens show for `C=CCNC(=S)NNc1nc2sc3c(c2c(=O)[nH]1)CC(C)(C)OC3`?
RE007 growth inh: 19%; 2A StopGo: -19%; NS1 inh: 12%; Marburg entry inh: inconclusive; SARS PLpro yeast: -1%

What do the screens show for `Cc1nc2ccn(Cc3cccs3)c(=O)c2cc1C(=O)NCc1ccccc1`?
2A StopGo: 11%; LASV entry inh: inconclusive; Cruzain Triton: -5.2%; Cruzain inh noDet: inconclusive

Results for NC(=O)[C@@H]1CC2(CC(c3cccc(NC(=O)CC(c4ccccc4)c4ccccc4)c3)=NO2)CN1C(=O)c1ccc(Cl)cc1 (stereo not given in full) ?
RE007 growth inh: 3%; 2A StopGo: -27%; NS1 inh: 4µM*; SARS PLpro yeast: 1%

How did CCOC(=O)c1[nH]nc2c1C(=O)N(Cc1ccccc1)C2=O do in these assays?
RE007 growth inh: 0%; 2A StopGo: 0%; NS1 inh: -61%; LASV entry inh: -13%; Cruzain Triton: -2.3%; Marburg entry inh: -2%; SARS PLpro yeast: -23%; Cruzain inh noDet: 2%

How did CSc1nc2ccc(NS(=O)(=O)c3ccc4c(c3)OCCO4)cc2s1 do in these assays?
RE007 growth inh: 7%; 2A StopGo: -16%; NS1 inh: -14%; LASV entry inh: -13%; Cruzain Triton: -7.5%; Marburg entry inh: inconclusive; SARS PLpro yeast: -28%; Cruzain inh noDet: -18%

Results for Cc1ncsc1CCSc1n[nH]c(=O)n1-c1ccccc1 ?
RE007 growth inh: -12%; 2A StopGo: -4%; NS1 inh: -10%; LASV entry inh: 3%; Cruzain Triton: 4.0%; Marburg entry inh: 12%; SARS PLpro yeast: 7%; Cruzain inh noDet: -7%

What do the screens show for `O=C(C[n+]1ccc(C(=O)N/N=C/c2ccc(Cl)cc2Cl)cc1)c1ccccc1`?
RE007 growth inh: -8%; NS1 inh: 0%; LASV entry inh: 12%; Cruzain Triton: 1.9%; Marburg entry inh: 10%; SARS PLpro yeast: -3%; Cruzain inh noDet: 2%

How did O=C(CNC(=O)c1ccccc1)OCC(=O)c1cccs1 do in these assays?
RE007 growth inh: -16%; 2A StopGo: 11%; NS1 inh: 4%; LASV entry inh: 25%[46.1 µM]; Marburg entry inh: -3%[46.1 µM]; SARS PLpro yeast: 1%

What do the screens show for `CCc1nnc(NC(=O)CCC(=O)NCCc2ccc(OC)c(OC)c2)s1`?
RE007 growth inh: 4%; 2A StopGo: -19%; NS1 inh: 19%; LASV entry inh: -24%; Cruzain Triton: 3.1%; Marburg entry inh: -3%; SARS PLpro yeast: -9%; Cruzain inh noDet: -4%

What do the screens show for `Cc1ccc(CNC(=O)CN2C(=O)CCc3cc(S(=O)(=O)N4CCCCC4)ccc32)cc1`?
2A StopGo: -16%; LASV entry inh: -6%[46.1 µM]; Cruzain Triton: -1.9%; Cruzain inh noDet: 1%

What do the screens show for `CC1(C)CC(=O)C2=C(C1)N(Cc1cccnc1)C(=O)C2(NC(=O)c1cccnc1)C(F)(F)F` (stereo not given)?
RE007 growth inh: 14%; 2A StopGo: 0%; NS1 inh: -4%; LASV entry inh: 2%; Cruzain Triton: 1.2%; Marburg entry inh: -9%[46.1 µM]; SARS PLpro yeast: 0%; Cruzain inh noDet: -7%

How did Cc1c(C(=O)NCc2ccc(F)cc2)oc2ccc(S(=O)(=O)N3CCCCC3)cc12 do in these assays?
2A StopGo: inconclusive; LASV entry inh: inconclusive; Cruzain Triton: -0.2%; Cruzain inh noDet: -3%

Results for N#CCSCC(=O)Nc1ccc(Cl)cc1 ?
RE007 growth inh: 3%; 2A StopGo: -4%; NS1 inh: 1%; LASV entry inh: -4%; Cruzain Triton: 2.5%; Marburg entry inh: -5%; SARS PLpro yeast: 7%; Cruzain inh noDet: 1%

Results for COCCN(C(=O)CSc1nc2nc(C)cc(C)n2n1)c1c(N)n(Cc2ccccc2)c(=O)[nH]c1=O ?
RE007 growth inh: 2%; 2A StopGo: 12%; LASV entry inh: -2%; Marburg entry inh: -6%[46.1 µM]; SARS PLpro yeast: 0%

Results for Cc1c(C(=O)N2CCOCC2)sc(NC(=O)C(C)C)c1C#N ?
RE007 growth inh: 11%; 2A StopGo: 0%; NS1 inh: -4%; LASV entry inh: -13%[46.1 µM]; Marburg entry inh: 15%[46.1 µM]; SARS PLpro yeast: -1%

How did CCC(C)NC(=O)c1ccc(C2SCC(=O)N2Cc2ccccc2)cc1 (stereo not given) do in these assays?
RE007 growth inh: 5%; 2A StopGo: -17%; NS1 inh: -30%; LASV entry inh: 3%; Marburg entry inh: 28%[46.1 µM]; SARS PLpro yeast: 1%

What do the screens show for `c1cncc(-c2nc(-c3ccco3)cs2)c1`?
RE007 growth inh: 6%; 2A StopGo: 37%[activator]; NS1 inh: -34%; LASV entry inh: 3%; Cruzain Triton: -9.7%; Marburg entry inh: 23%; SARS PLpro yeast: -9%; Cruzain inh noDet: -5%

Compound activity (PubChem BioAssay)
